Mtb H37Rv = M. tuberculosis H37Rv growth inhibitors, H37Rv strain (AID 1626); M. tuberculosis H37Rv growth inhibition; higher % means a stronger effect; inhibition, % at 10 µM, or IC50 in µM where a hit was titrated; 220,000 tested, 0.95% active;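 active = confirmed in a dose series; inconclusive = inhibition above 80% but not taken into the dose series; inactive = below 80% or under 30% at every dose of the series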;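 note: bacteria incubated seven days before Alamar blue readout; 0% = bacteria only wells and 100% = bacteria with antibiotic wells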
Arbovirus anti = antivirals against arbovirus infection, primary screen, cell-based, full library, 10K replicate subset | 200,000 tested, 0.37% active | arbovirus infection cell-based antiviral screen | inhibition, % at 10 µM;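 active = inhibition from about 30%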;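 note: bluetongue infection of BSR cells; cell survival read as ATP light after 72 h; 0% = infected wells without compound and 100% = uninfected wells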
RecA splice inh = Mtb RecA intein splicing inhibitors, primary screen, biochemical, fluorescence, HTS; Protein RecA (Mycobacterium tuberculosis (strain ATCC 25618 / H37Rv)), P9WHJ3; cell-free RecA intein splicing; inhibition, %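 (about 9 µM by stock and volumes)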; 290,000 tested, 0.75% active; in the data active = inhibition above about 30%; inconclusive = no clear call, values can overlap the other calls;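 note: 0% = vehicle wells and 100% = reference inhibitor control wells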
Target sequence (P9WHJ3 whole entry, looked up, canonical isoform): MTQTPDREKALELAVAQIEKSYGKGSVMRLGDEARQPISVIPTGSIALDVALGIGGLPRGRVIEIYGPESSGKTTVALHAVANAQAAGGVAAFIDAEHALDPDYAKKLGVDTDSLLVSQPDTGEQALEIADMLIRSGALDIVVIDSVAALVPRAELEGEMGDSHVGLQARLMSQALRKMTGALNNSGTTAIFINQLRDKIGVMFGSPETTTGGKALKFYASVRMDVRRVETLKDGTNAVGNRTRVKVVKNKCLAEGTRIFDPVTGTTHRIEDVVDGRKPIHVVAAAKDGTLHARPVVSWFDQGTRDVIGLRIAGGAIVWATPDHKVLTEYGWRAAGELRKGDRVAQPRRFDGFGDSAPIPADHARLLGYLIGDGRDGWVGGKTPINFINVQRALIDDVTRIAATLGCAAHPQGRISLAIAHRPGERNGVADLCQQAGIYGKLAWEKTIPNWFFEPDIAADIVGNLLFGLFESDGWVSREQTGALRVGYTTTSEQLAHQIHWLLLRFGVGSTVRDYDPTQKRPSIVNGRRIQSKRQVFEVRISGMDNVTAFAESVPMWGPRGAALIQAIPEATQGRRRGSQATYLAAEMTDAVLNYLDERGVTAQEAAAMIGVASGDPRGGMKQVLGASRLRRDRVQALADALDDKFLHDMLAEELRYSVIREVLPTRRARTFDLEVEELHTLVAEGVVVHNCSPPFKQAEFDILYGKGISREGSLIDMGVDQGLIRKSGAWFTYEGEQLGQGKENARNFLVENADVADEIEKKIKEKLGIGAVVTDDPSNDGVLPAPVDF
YopH inh = YopH tyrosine phosphatase inhibitors, primary screen, biochemical, fluorescence Ex485/Em525; YopH tyrosine phosphatase [Yersinia enterocolitica]; 140,000 tested, 0.16% active; inhibition, %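 (about 10 µM by stock and volumes)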; AID 898, 2007;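 active = inhibition of 50% or more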;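 note: controls were vehicle for no effect and minimum signal wells for full effect; inactives centre near -20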
Mtb bLac sens = beta-lactam sensitization of Mtb H37Rv, H37Rv. 330,000 tested, 0.27% active. AID 434955, 2010. inhibition, % at 25 µM. M. tuberculosis H37Rv growth with meropenem, percent inhibition; hits of this screen are not shown here;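 active = about 74% or more and at least 40 points above the plate without the antibiotic, then above 30% in a dose series; inconclusive = first-round hits that could not be retested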;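 note: growth measured after seven days incubation then overnight dye step; 0% = bacteria only wells and 100% = bacteria with antibiotic; twin plates without the antibiotic show which effects depend on it; some results filed as inactive read as strong as hits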
Arbovirus anti repeat = further read-out of Arbovirus anti, marked with its call; inhibition, %; measured here: 10K subset replicate screen; many hits read low in the repeat;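 first of two repeat runs on a subset; 0% = infected and 100% = uninfected wells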
Active calls of the source: *; ? = inconclusive; . = no result given.

SMILES	Mtb H37Rv	Arbovirus anti	RecA splice inh	YopH inh	Mtb bLac sens	others
COc1ccc(CN2CCCCCC2)cc1	.	.	-2.1	.	-1
Cc1cc2n(n1)C(c1ccc3c(c1)OCO3)Nc1c(C)cccc1-2 (stereo not given)	-1%	12	7.2	-42	1
c1ccc(CC2CCCCN2)cc1 (stereo not given)	.	.	0.6	.	-2
Cc1cc(C(=O)COC(=O)C23CC4CC(CC(O)(C4)C2)C3)c(C)n1-c1c(C)n(C)n(-c2ccccc2)c1=O	-2%	-1	3.6	.	0
O=c1oc2ccccc2cc1-c1csc(NN=C2CCCC2)n1	15%	-3	-6.0	-41	3
COCCCNC(=S)NNC(=O)c1cc(C2CC2)nc2ccccc12	.	.	0.2	.	6
O=C(O)c1ccc(-c2nnc(-c3cccc(Br)c3)o2)cc1	.	.	-0.8	.	-1
CCCNC(=O)C1CCN(S(=O)(=O)c2cccc3nonc23)CC1	3%	2	-5.8	.	4
Cc1cc(C)c2cc(CN(CCN3CCCC3)C(=O)Nc3ccc(F)cc3)c(=O)[nH]c2c1	6%	-7	0.7	-14	-5
CCc1nc(SCC(=O)O)c(C#N)c2c1CCCC2	-4%	-6	-0.9	.	1
COc1ccc2c(c1)CCc1c(C(=O)NCc3ccco3)noc1-2	6%	-5	13	-35	94
O=C(NCCc1c[nH]c2ccccc12)C(=O)NCC(c1ccco1)N1CCN(c2ccc(F)cc2)CC1 (stereo not given)	6%	-6	-0.8	-4	-6
CCOc1cc(C)c(S(=O)(=O)NC2CCCCC2)cc1C	-1%	-6	2.4	-22	0
COc1cccc(C(=O)NCC2(c3ccc(OC)c(OC)c3)CCCC2)c1	.	.	-2.0	.	0
COCCN1Cc2cc3cc(C)ccc3nc2SC1=Nc1cccc(OC)c1	-4%	8	5.1	.	38
O=C1NC(=Nc2ccccc2Cl)SC1(CO)CO	.	.	-1.0	.	-1
O=C(NN1C(=O)c2ccccc2NC1c1ccccc1OCc1ccccc1)c1ccncc1 (stereo not given)	-10%	-11	1.1	-21	-4
Nc1nc(Sc2ccc(C(F)(F)F)cc2[N+](=O)[O-])n[nH]1	-11%	4	-1.2	3	-6
CCC(C)c1ccc(-c2cc(C(=O)OCC(=O)Nc3cc(C)on3)c3ccccc3n2)cc1 (stereo not given)	-1%	-22	-1.9	1	10
CCC(=O)N1CCCc2cc(S(=O)(=O)NCc3cccs3)ccc21	5%	1	1.1	-17	-3
CN(C)CCNC(=O)C(C(=O)c1ccccc1)n1ccccc1=O (stereo not given)	-4%	7	2.6	-29	-19
Cc1ccc(-c2nc3ccccc3c(=O)n2CCCN2CCOCC2)cc1	-9%	8	0.2	-14	7
COc1ccc(Cc2nnc(NC(=O)Cc3cccs3)s2)cc1	.	0	.	-39	.
CCOc1ccccc1N1CCN(C(=O)c2csc(C)c2CC)CC1	8%	5	3.4	.	10
O=C(O)c1ccc(S(=O)(=O)NC2CCCCCC2)cc1	.	.	0.7	.	-7

In the list so far, these have fluorine.
SMILES	Mtb H37Rv	Arbovirus anti	RecA splice inh	YopH inh	Mtb bLac sens	others
Cc1cc(C)c2cc(CN(CCN3CCCC3)C(=O)Nc3ccc(F)cc3)c(=O)[nH]c2c1	6%	-7	0.7	-14	-5
O=C(NCCc1c[nH]c2ccccc12)C(=O)NCC(c1ccco1)N1CCN(c2ccc(F)cc2)CC1 (stereo not given)	6%	-6	-0.8	-4	-6
Nc1nc(Sc2ccc(C(F)(F)F)cc2[N+](=O)[O-])n[nH]1	-11%	4	-1.2	3	-6

Continued.
SMILES	Mtb H37Rv	Arbovirus anti	RecA splice inh	YopH inh	Mtb bLac sens	others
Cc1ccc(NC(=O)CN(C)C(=O)CNC(=O)c2ccc3c(c2)OCO3)cc1	.	.	3.8	.	-2
O=C(CSc1n[nH]c(-c2ccncc2)n1)Nc1ccc(Br)cc1	.	.	2.3	.	1
Cc1ccc(-n2nc(C)c(=O)c(-c3ccccc3)c2NC(=O)C(C)C)cc1	-6%	.	0.8	.	-8
COc1ccc(C(=O)COC(=O)C2CCC(=O)N2)cc1 (stereo not given)	-4%	-1	2.1	.	-6
Cc1cc(NC(=O)CSc2nc3cc(Cl)ccc3c(=O)n2Cc2ccco2)no1	0%	-1	-0.8	.	1
O=C(NCCC1=CCCCC1)C(=O)c1c[nH]c2ccccc12	-2%	4	2.6	-39	1
COc1sc(SC)cc1/C=N/NC(=O)c1ccncc1	.	.	-3.0	.	98
Cc1ncc(CC(=O)n2cc(C(=O)c3cc(F)ccc3O)cn2)s1	11%	9	-1.5	10	-1
Fc1cccc(CN2CCN(c3ncccn3)CC2)c1	-7%	1	.	-27	-1
NC(=O)c1ccccc1O	1%	6	1.2	-51	2
N#Cc1c(Cl)nsc1NN	4%	24	-2.6	.	10
CC(Sc1ccc(Br)cc1)C(N)=O (stereo not given)	-8%	4	1.7	-48	1
COc1cccc(CN(C)c2nc(-c3cccs3)nc3ccccc23)c1	12%	4	9.1	-7	8
CCOc1ccccc1N1CC(C(=O)N(Cc2nnc(-c3ccccc3Cl)o2)C2CC2)CC1=O (stereo not given)	.	.	-0.6	.	-1
C[C@H](NC(=O)C1CC(=O)N(c2ccc3c(c2)OCCO3)C1)C(=O)N1CCC(C(=O)O)CC1 (stereo not given in full)	.	.	1.7	.	-3
NC(=O)CSc1nnc(-c2cnccn2)n1Cc1ccco1	-2%	.	0.7	.	3
Cc1c(S(=O)(=O)N2CCN(c3cccc(C(F)(F)F)c3)CC2)c(=O)n(C)c(=O)n1C	-6%	0	0.2	-24	-5
COC(=O)c1ccc(COc2ccc(Cl)cc2)o1	.	.	5.8	.	4
Cc1nc2ccccc2cc1OCc1ccccc1	.	8	6.2	-34	10
O=C(c1cccs1)N1CCN=C1SCc1ccc(F)cc1	1%	.	3.2	.	2
COC(=O)c1sccc1NC(=O)Nc1cccc(Cl)c1Cl	7%	1	1.2	-34	-8
CCC(Cc1ccccc1)NC(=O)C1CCC(CNc2c(N3CCCC3)c(=O)c2=O)CC1 (stereo not given)	0%	1	1.2	-29	3
CCCNC(=O)COC(=O)CCC(=O)c1cccs1	-4%	2	-3.0	-17	-2
CCCCn1c(N)c(N(CCOC)C(=O)COC(=O)COc2c(C)cccc2C)c(=O)[nH]c1=O	.	.	-1.6	.	0
C/C(=C1/SC(N2CCOCC2)=NC1=O)c1ccc(Br)cc1	-18%	4	2.8	-34	3	Arbovirus anti repeat=1
SMILES	Mtb H37Rv	Arbovirus anti	RecA splice inh	YopH inh	Mtb bLac sens	others
O=C(NN1C(=O)CSC1=S)C(=O)NN1C(=O)CSC1=S	-4%	-2	-2.0	.	-3
O=C(COC(=O)/C=C/c1ccc(Br)o1)Nc1ccc2[nH]c(=O)[nH]c2c1	.	.	-0.9	.	0
Cc1ccc(-c2nc3ccccc3c(=O)n2-c2cccc(C)n2)cc1	-9%	0	-1.1	.	0
Cc1ccc2nc(SCC(=O)N3c4ccccc4CC3C)c(C)cc2c1 (stereo not given)	-3%	1	-1.2	-19	2
COc1ccc(OC)c(NC(=O)N[C@H](Cc2ccccc2)C(=O)NN)c1	-3%	.	-42	.	1
CC(NC(=O)c1ccco1)C(=O)NC(C)c1cc(F)c(Cl)cc1Cl (stereo not given)	.	.	1.9	.	1
CC(C)N(Cc1nc(-c2ccccc2)no1)C(=O)C(C)(C)C	3%	-5	0.1	32	-10
COc1ccc(C(=O)COC(=O)CNC(=O)c2ccc(Cl)cc2Cl)c(OC)c1	.	.	-3.1	.	5
CCCN1C(=O)C(NC(C)=O)c2ccccc21 (stereo not given)	2%	1	-1.2	20	2
Cc1ccc(C2N(c3ccccc3)C(=O)N3CCCN23)cc1 (stereo not given)	-5%	-2	0.7	.	1
COc1cc(CNc2ccc(O)cc2)cc(Br)c1OCc1ccccc1F	4%	-6	7.9	-19	30
NS(=O)(=O)c1ccc(CCNC(=O)C2CCC(CNS(=O)(=O)c3ccc(Br)s3)CC2)cc1 (stereo not given)	4%	2	4.8	.	-12
COc1cccc(NC(=O)c2ccccc2-c2ccccc2)c1	4%	5	2.7	.	9
CCN(C(=O)COC(=O)c1cc(NS(=O)(=O)c2ccc(Cl)c([N+](=O)[O-])c2)ccc1O)C1CCCCC1	-8%	-48	0.4	-27	3
O=C(c1cccnc1)n1nc(NCc2ccccc2)nc1NCc1ccccc1	-1%	-8	-4.7	.	6
C=CCOc1c(Cl)cc(/C=N/O)cc1OC	7%	-2	-2.1	-38	43
CC1=C(C(=O)Nc2ccccc2F)C(c2ccsc2)C2=C(CC(C)(C)CC2=O)N1 (stereo not given)	-4%	-15	.	-28	-14
CC(N=C1NS(=O)(=O)c2ccccc21)C(=O)NCc1ccc2c(c1)OCO2 (stereo not given)	-3%	2	-0.4	-11	-18
O=C(NCc1ccc(Cl)cc1)c1cc(-c2cccs2)on1	-2%	1	1.9	-57	1
Cc1cc(C)nc(N2CCCC(C(=O)Nc3cc(F)ccc3C)C2)n1 (stereo not given)	.	1	-3.3	-49	-8
CC(C)OP(=O)(c1ccc(N(C)C)cc1)C(O)c1cccnc1 (stereo not given)	-5%	.	-0.3	.	-6
CCCOc1ccc2c3c(c(=O)oc2c1)CCCC3	9%	-2	3.4	0	15
Cc1ccc(-c2c(C#N)c(N)nc3c2CCCC3)s1	-6%	1	-3.2	-23	4
Cc1nn(C(C)C(=O)NCc2ccc(Cl)cc2)c(=O)c2cc3occc3n12 (stereo not given)	.	.	0.4	.	6
Cc1cc2ccccc2nc1SCC(=O)N1c2ccccc2CC1C (stereo not given)	-4%	-2	0.4	-4	-1

Of the compounds above, these contain a nitro group on carbon:
SMILES	Mtb H37Rv	Arbovirus anti	RecA splice inh	YopH inh	Mtb bLac sens	others
Nc1nc(Sc2ccc(C(F)(F)F)cc2[N+](=O)[O-])n[nH]1	-11%	4	-1.2	3	-6
CCN(C(=O)COC(=O)c1cc(NS(=O)(=O)c2ccc(Cl)c([N+](=O)[O-])c2)ccc1O)C1CCCCC1	-8%	-48	0.4	-27	3

(further entries)
SMILES	Mtb H37Rv	Arbovirus anti	RecA splice inh	YopH inh	Mtb bLac sens	others
Nc1nc2ccccc2nc1N1CCCC1	-3%	-2	-2.0	-4	-7
CN1CCN(c2ccc(NC(=O)CN3CCOCC3)cc2F)CC1	4%	5	-0.1	.	4
CCC(C(=O)OC)n1cnc2c(nnn2-c2ccccc2)c1=O (stereo not given)	.	.	-1.4	.	-4
CCSc1nnc(Cn2c(=O)sc3ccccc32)n1-c1ccccc1C	1%	1	2.9	1	?	Arbovirus anti repeat=1
CCCN(CCC)CCCNC(=O)c1cc2c(=O)[nH]c3ccccc3c2n1C	2%	-8	0.9	.	-1
CCCNC(=O)N1[C@H]2CC[C@@H]1C(C(=O)OC)=C(c1ccccc1)C2	-5%	.	-1.3	.	2
CCc1ccc(-c2n[nH]c(=O)c3ccccc23)cc1	.	.	-3.2	.	1
O=C(NCc1ccccn1)Nc1cc(Cl)cc(Cl)c1	.	.	1.7	.	9
CCCNc1nc2c(c(=O)n(C)c(=O)n2C)n1Cc1cccc(C)c1	-2%	14	-1.3	-2	5
Cc1cc(NC(=O)COC(=O)CCNS(=O)(=O)c2ccccc2)n(-c2ccccc2)n1	.	.	-3.3	.	-2
CCOC(=O)c1c(C)[nH]c(C(=O)OCC(=O)NCCc2ccc(OCC)c(OCC)c2)c1C	.	.	-2.9	.	-2
CCCCN(C(=O)CN1CC(C)OC(C)C1)c1c(N)n(CC(C)C)c(=O)[nH]c1=O (stereo not given)	3%	3	0.1	-14	-4
COC(=O)c1ccc(C2/C(=C(\O)c3cccc(OC)c3)C(=O)C(=O)N2CCCN(C)C)cc1 (stereo not given)	-9%	-1	-2.4	-22	-3
CCCCn1c(SCC2CCCO2)nc2cc(S(N)(=O)=O)ccc21 (stereo not given)	-2%	0	0.0	4	-1
COc1ccc(CCNC(=O)CCN2C(=O)C3CC=CCC3C2=O)cc1OC (stereo not given)	-5%	3	-0.6	-38	4
CC(CC(=O)Nc1ccncc1)c1ccccc1 (stereo not given)	-6%	5	0.1	-37	-5
Cc1ccc(C(=O)OC(C)C(=O)NC2CCCCC2C)cc1S(=O)(=O)N1CCCCC1 (stereo not given)	.	.	2.2	.	0
CCC(=O)Nc1ccc2ccccc2c1	47µM*	-5	1.5	-29	93

Three compounds from above, ordered by heavy-atom count, rising.
SMILES	Mtb H37Rv	Arbovirus anti	RecA splice inh	YopH inh	Mtb bLac sens	others
Nc1nc2ccccc2nc1N1CCCC1	-3%	-2	-2.0	-4	-7
CCCCn1c(SCC2CCCO2)nc2cc(S(N)(=O)=O)ccc21 (stereo not given)	-2%	0	0.0	4	-1
CCCNc1nc2c(c(=O)n(C)c(=O)n2C)n1Cc1cccc(C)c1	-2%	14	-1.3	-2	5

Some of the compounds tested; count on the stated rates, not on these rows.
